# High-throughput results: PubChem BioAssay, National Center for Advancing Translational Sciences (NCATS)
# PINK1 modulator: A Quantitative High throughput Screen to Identify Chemical Modulators of PINK1 Expression; PINK1 immunofluorescence, high-content cytometry, 24 h; 410,000 tested, 0.2% active; Potency, µM (titrated, usually from 76.6 µM), without a hit: top-dose activation (PINK1 increase), hits mostly activators; AID 624263, 2012; active = well fitted activation curve with a large enough effect; inconclusive = small, poorly fitted or top-dose-only effect; inactive = flat fitted curve, though single readings scatter; cell line not stated here;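 also: potency is read from the fitted curve at half-maximal effect; % of control where 0% means no effect; nearly all actives have a fitted effect of over 65% in size; a mitochondrial uncoupler was the plate control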
#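 Decision-based qHTS: stable cells, 24 h exposure to five compound concentrations, CCCP as control. Fixed cells stained for PINK1 plus nuclear, mitochondrial and cell markers, cytometer read.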
# D2 agonist: Beta-Arrestin HTS for Positive Allosteric Modulators of the Human D2 Dopamine Receptor: Agonists. DiscoveRx PathHunter D2 beta-arrestin, luminescence, 90 min; 100% = 57 uM dopamine signal. activation, % (no concentration beside the values). 360,000 tested, 0.084% active. AID 624465, 2012; in the data active = activation above about 40%; inconclusive = about 15% to 40%; inactive = below about 15%; also: compound concentration not given in the record; the text of the record calls up to 30% inactive
#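 Agonist mode: compounds alone added to overnight-plated D2 PathHunter cells for 90 min at 37 C, with 57 uM final dopamine (EC100) defining full response. Beta-arrestin recruitment detected by chemiluminescent reagent, read after 1 h at ambient temperature.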
# TRPML1 agonist: qHTS for Agonists of the Human Mucolipin Transient Receptor Potential 1 (TRPML1); Mucolipin-1 (Homo sapiens), Q9GZU1; TRPML1-expressing cells, Ca2+ dye fluorescence, FDSS; host cell line not named in the record; reference of the full effect not given here; activation, % (test concentration not listed); 410,000 tested, 0.12% active; in the data active = activation above about 50%; inconclusive = about 30% to 50%; inactive = below about 30%; also: 0% is about no effect; the text of the record puts the active cut at 80%
#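 Agonist activity was taken from a 110 s kinetic Ca2+ dye read on the FDSS after pinning compounds onto TRPML1-DL cells. The cells were seeded at 1,500/well with Tet inducer, incubated about 16 h, then dye-loaded at room temperature.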
# Six1-Eya2 inh: qHTS Assay for Inhibitors of the Six1/Eya2 Interaction; Homeobox protein SIX1 (Homo sapiens) + Protein phosphatase EYA2 (Homo sapiens), …; AlphaScreen GST-Six1/His-Eya2 binding, biochemical; hits give low values; control for the full effect not named in the record; activity change, % (concentration not given with the values); 360,000 tested, 0.56% active; AID 651725, 2012; in the data active = activity change below about -65%; inconclusive = about -30% to -65%; inactive = above about -30%; also: % is scaled to controls: 0 for no effect and ±100 for the full control effect
# Target sequence (O00167 whole entry, looked up): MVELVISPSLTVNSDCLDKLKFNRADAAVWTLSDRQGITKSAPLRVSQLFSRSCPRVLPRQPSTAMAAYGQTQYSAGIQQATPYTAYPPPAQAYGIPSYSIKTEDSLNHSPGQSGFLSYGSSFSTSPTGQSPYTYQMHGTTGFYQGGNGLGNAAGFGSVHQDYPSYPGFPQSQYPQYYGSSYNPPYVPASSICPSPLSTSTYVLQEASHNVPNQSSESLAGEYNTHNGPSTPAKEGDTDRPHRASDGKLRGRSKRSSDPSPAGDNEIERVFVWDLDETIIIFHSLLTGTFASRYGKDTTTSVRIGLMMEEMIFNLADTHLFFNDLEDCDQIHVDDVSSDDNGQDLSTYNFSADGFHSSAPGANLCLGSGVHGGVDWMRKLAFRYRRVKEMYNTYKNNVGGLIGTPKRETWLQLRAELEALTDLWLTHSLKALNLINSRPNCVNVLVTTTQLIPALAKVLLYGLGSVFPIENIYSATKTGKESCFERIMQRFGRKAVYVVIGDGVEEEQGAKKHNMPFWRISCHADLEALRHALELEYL
# Target sequence (Q15475 whole entry, looked up): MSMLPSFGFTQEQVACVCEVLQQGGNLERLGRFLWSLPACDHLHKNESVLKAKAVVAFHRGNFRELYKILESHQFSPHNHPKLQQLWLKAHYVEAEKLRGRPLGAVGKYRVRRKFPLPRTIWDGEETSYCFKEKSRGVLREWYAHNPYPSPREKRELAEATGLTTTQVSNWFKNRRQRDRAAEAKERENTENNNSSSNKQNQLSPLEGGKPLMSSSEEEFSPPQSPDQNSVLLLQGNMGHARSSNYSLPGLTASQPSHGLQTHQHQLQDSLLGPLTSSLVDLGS
#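 GST-Six1 + His-Eya2 (5X stock: 250/500 nM); Tris pH 8.0, 300 mM NaCl, 0.05% BSA, 0.02% Tween 20; GSH donor/Ni acceptor beads; 1 h 37 °C dark; AlphaScreen readout.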
# D2 PAM: Beta-Arrestin HTS for Positive Allosteric Modulators of the Human D2 Dopamine Receptor: Potentiators | D(2) dopamine receptor (Homo sapiens), P14416 | DiscoveRx D2 beta-arrestin cells, luminescence, 90 min; 100% = 57 uM dopamine signal | potentiation, % (test concentration not listed) | 360,000 tested, 0.23% active | AID 624464, 2012; active = potentiation of 50% or more; inconclusive = 30% to 50%; inactive = 30% or less;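 also: compound concentration not given in the record; tested on top of an EC20 dose of dopamine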
#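 PathHunter beta-arrestin assay in DiscoveRx D2 cells. Compounds were added with an EC20 of dopamine (50 nM final) for 90 min at 37 deg C. Luminescence was read 1 h after detection reagent, with 57 uM dopamine as the EC100 control.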
# TRPML1 inh: qHTS for Inhibitors of the Human Mucolipin Transient Receptor Potential 1 (TRPML1) | TRPML1-inducible cells, Ca2+ dye fluorescence, FDSS; hits give low values; inhibition of EC80 agonist-evoked calcium signal | activity change, negative = inhibition, % (test concentration not listed) | 390,000 tested, 0.02% active | AID 624415, 2012; in the data active means activity change below about -50%; inconclusive means about -30% to -50%; inactive means above about -30%;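 also: stimulus is agonist 54-4 at its EC80 concentration; % is scaled to controls: 0 for no effect and ±100 for the full control effect; compound concentration not given in the record; the text of the record puts the active cut at -80%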
#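 Tet-induced TRPML1-DL cells loaded with Ca8 no-wash calcium dye were read kinetically on FDSS. Compound addition was followed by EC80 agonist 54-4 (4 uM final); inhibition was read over 110 s.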
# * = called active by the depositor; ? = inconclusive; / = no result given; [ ] = remark or other dose.
# Every second line gives: PINK1 modulator	D2 agonist	TRPML1 agonist	Six1-Eya2 inh	D2 PAM	TRPML1 inh
Cc1ccc2oc(C(=O)Nc3ccc(S(=O)(=O)N4CCCCCC4)cc3)cc(=O)c2c1
    2.2%	/	-1.1	/	/	-17
CCOCCn1c(CN2CCN(CCO)CC2)nc2c1c(=O)n(C)c(=O)n2C
    2.5%	-2.0	0.2	-2	3	-10
CCOC(=O)c1cnc2ccc(C)cc2c1Nc1ccc(OCc2ccccc2Cl)cc1
    3.7%	/	1.5	/	/	63
CCOC(=O)N1CCN(C(=O)CSc2nc3ccccc3c(=O)n2-c2ccccc2)CC1
    -1.1%	-0.2	2.8	0	-25	24
COc1ccc(CN(C(=O)CNC(=O)c2ccco2)C(C(=O)NCC2CCCO2)c2ccc(OC)c(OC)c2)cc1 (configuration not stated)
    1.6%	-4.8	-0.4	2	-8	-8
O=C(CCCc1ccccc1)Nc1cccc(C(=O)O)c1
    0.6%	-1.2	-0.6	5	-1	-6
O=c1cc(-c2ccccc2)n2c(SCc3cccc([N+](=O)[O-])c3)nnc2[nH]1
    -7.2%	/	-0.1	/	/	28
CCc1ccc(-c2cc3c(=O)n(CC(=O)N4CCCCCC4)nc(C)n3n2)cc1
    3.2%	1.0	-0.3	1	-4	14
COc1ccc(N(CC(=O)NCCSCc2ccco2)S(=O)(=O)c2ccccc2)cc1
    1.2%	10	2.6	-1	-2	8
O=C(NCc1ccccn1)C1Nc2ccc(C(F)(F)F)cc2C2C=CCC12 (configuration not stated)
    1.8%	-0.2	-0.2	?	-5	-11
N#Cc1ccsc1NC(=O)CN1CCN(Cc2ccccc2)CC1
    0.1%	-6.4	-0.9	0	-1	-10
CCOc1ccc2ccccc2c1/C=N/NC(=O)CNC(=O)Cc1ccccc1
    2.0%	-1.8	2.0	-7	-7	0
O=C(CCN1C(=O)/C(=C\c2ccccc2)SC1=S)NNC(=O)c1ccccc1O
    9.1%	-5.0	0.0	-22	-4	-13
CC(OC(=O)c1ccc(Cl)nc1)C(=O)N1CCc2ccccc21 (configuration not stated)
    -2.2%	2.4	4.2	4	3	-9
COC(=O)[C@@H]1C[C@H]2CC[C@H](O)C[C@H]2N1Cc1ccc(C(F)(F)F)cc1
    0.9%	0.1	-1.1	-1	-23	-4
COc1ccc(-n2cnnc2SCC(=O)c2ccc(S(=O)(=O)N3CCOCC3)cc2)cc1
    -1.7%	4.7	-0.9	1	-4	-3
CCCCOC(=O)c1ccc(N=Nc2c(C)c(C#N)c(O)[nH]c2=O)cc1
    ?	-2.6	-0.4	-13	-3	9
CCOC(=O)CNC(=O)c1sc2ncnc(N3CCc4ccccc4C3)c2c1C
    11%	1.3	2.1	-8	-8	6
Cc1ccc(Cc2c(C)c(C#N)c3[nH]c4ccccc4n3c2=O)cc1
    ?	4.7	0.7	4	3	25
O=C(NCc1nnc(SCC(=O)N2CCCC2)o1)c1c(F)cccc1F
    4.3%	-3.3	0.0	3	16	4
CCOC(=O)C1CCCN(C(=O)Cn2sc3nc(C)cc(C)c3c2=O)C1 (configuration not stated)
    -0.8%	-2.3	-0.3	3	-11	-13
COc1ccc(-n2c(SCC(=O)Nc3ccccc3OC)nc(O)cc2=O)cc1
    0.5%	-4.1	0.7	-9	-8	-13
COc1ccc(C2C(C(C)=O)=C(O)C(=O)N2Cc2ccccc2)c(OC)c1 (configuration not stated)
    0.4%	-4.2	/	3	2	/
CNC(=S)NC1CC2CCCC(C1)N2Cc1ccco1 (configuration not stated)
    -3.4%[38.3 µM]	-0.7	0.6	5	-21	35
CCOC(=O)C1(CC2CCCCO2)CCN(Cc2ccc(OC)cc2F)CC1 (configuration not stated)
    1.4%	-3.1	2.1	8	-15	17
O=C(NCCc1ccc(C(F)(F)F)cc1)C1CC(=O)N(c2ccc3c(c2)OCCO3)C1 (configuration not stated)
    5.0%	-1.2	0.4	-3	-3	-20
Cc1ccc(OCC(=O)Nc2ccc(N3CCN(C(=O)c4ccco4)CC3)cc2)cc1C
    1.7%	11	2.1	-16	9	-8
CCCCOc1ccccc1C1CC(=O)Nc2cc(OC)c(OC)cc21 (configuration not stated)
    2.3%	/	-0.7	/	/	3
CC1CN(C2=N/C(=C/c3ccc4c(c3)OCO4)C(=O)N2)CC(C)O1 (configuration not stated)
    -1.3%	-0.2	-0.8	8	-2	-8
O=C(/C=C/c1cccc(F)c1)N(c1ccccn1)C1CCCCC1
    2.4%	-2.9	0.6	-6	0	-8

# 13 of these compounds in a different format.
structure	PINK1 modulator	D2 agonist	TRPML1 agonist	Six1-Eya2 inh	D2 PAM	TRPML1 inh
Cc1ccc2oc(C(=O)Nc3ccc(S(=O)(=O)N4CCCCCC4)cc3)cc(=O)c2c1	2.2%	/	-1.1	/	/	-17
CCOCCn1c(CN2CCN(CCO)CC2)nc2c1c(=O)n(C)c(=O)n2C	2.5%	-2.0	0.2	-2	3	-10
CCOC(=O)c1cnc2ccc(C)cc2c1Nc1ccc(OCc2ccccc2Cl)cc1	3.7%	/	1.5	/	/	63
CCOC(=O)N1CCN(C(=O)CSc2nc3ccccc3c(=O)n2-c2ccccc2)CC1	-1.1%	-0.2	2.8	0	-25	24
COc1ccc(CN(C(=O)CNC(=O)c2ccco2)C(C(=O)NCC2CCCO2)c2ccc(OC)c(OC)c2)cc1 (configuration not stated)	1.6%	-4.8	-0.4	2	-8	-8
O=C(CCCc1ccccc1)Nc1cccc(C(=O)O)c1	0.6%	-1.2	-0.6	5	-1	-6
O=c1cc(-c2ccccc2)n2c(SCc3cccc([N+](=O)[O-])c3)nnc2[nH]1	-7.2%	/	-0.1	/	/	28
CCc1ccc(-c2cc3c(=O)n(CC(=O)N4CCCCCC4)nc(C)n3n2)cc1	3.2%	1.0	-0.3	1	-4	14
COc1ccc(N(CC(=O)NCCSCc2ccco2)S(=O)(=O)c2ccccc2)cc1	1.2%	10	2.6	-1	-2	8
O=C(NCc1ccccn1)C1Nc2ccc(C(F)(F)F)cc2C2C=CCC12 (configuration not stated)	1.8%	-0.2	-0.2	?	-5	-11
N#Cc1ccsc1NC(=O)CN1CCN(Cc2ccccc2)CC1	0.1%	-6.4	-0.9	0	-1	-10
CCOc1ccc2ccccc2c1/C=N/NC(=O)CNC(=O)Cc1ccccc1	2.0%	-1.8	2.0	-7	-7	0
O=C(CCN1C(=O)/C(=C\c2ccccc2)SC1=S)NNC(=O)c1ccccc1O	9.1%	-5.0	0.0	-22	-4	-13

# The list continues.
# Every second line gives: PINK1 modulator	D2 agonist	TRPML1 agonist	Six1-Eya2 inh	D2 PAM	TRPML1 inh
C/C(=C\C(=O)c1sccc1Cl)N(C)C
    2.5%	-1.0	-0.6	3	-1	23
CCN(C1CCCCC1)S(=O)(=O)c1cc2c3c(c1)CCN3C(=O)CC2
    1.2%	-5.4	-0.2	-6	5	-4
O=C(CN(Cc1ccc(F)cc1)C(=O)c1csnn1)NCc1ccc2c(c1)OCO2
    -1.2%	-0.2	-0.4	7	4	-13
CC(=O)Nc1ccc(S(=O)(=O)NCCC(=O)NCCCc2ccccc2)cc1
    0.5%	5.4	1.5	6	-1	1
Cn1c(C(=O)NCc2ccccn2)cc2c(=O)n(C)c3ccccc3c21
    2.9%	0.7	1.6	0	-3	33
Cn1cnc2c(ncn2C2OC(CO)C(O)C2O)c1=S (configuration not stated)
    -1.3%	-0.7	2.2	-15	-1	1
N/C(=N\OC(=O)c1cccs1)c1cccnc1
    -1.6%	?	-0.5	9	?	-4
CCN1CCN(c2cc(C)c3cc(NC(=S)N4CCCCC4)ccc3n2)CC1
    1.4%	-3.8	0.0	-17	-9	24
NS(=O)(=O)c1cccc(NC(=O)COC(=O)c2cc(Cl)ccc2[N+](=O)[O-])c1
    -0.2%	6.9	/	-1	2	/
Cc1cc(C)nc(NNS(=O)(=O)c2ccc(Cl)cc2)n1
    -1.5%	-15	1.1	25	-40	-16
Cc1c(C(=O)OCC2CCCO2)[nH]c2c1C(=O)CC(c1ccco1)C2 (configuration not stated)
    3.1%	-0.3	0.3	-24	-4	1
Cc1cccc(OCc2n[nH]c(=S)n2-c2ccccc2)c1
    -1.8%	-8.2	-0.2	5	-2	-3
COc1ccc(C(=O)Oc2cc(OC)cc(OC)c2C(C)=O)cc1
    1.5%	-1.6	-0.2	-13	-5	14
CCOCCCn1c(SCC(=O)Nc2oc(C)c3c(C)n[nH]c(=O)c23)nnc1-c1ccncc1
    4.7%	0.8	-0.4	4	-3	47
CCN=C1S/C(=C/c2ccc(-c3ccc(F)cc3)o2)C(=O)N1CC
    20%	-0.6	0.1	15	-7	-14
COc1ccccc1OC(C)C(=O)Nc1ccc(S(=O)(=O)Nc2nccs2)cc1 (configuration not stated)
    0.0%	3.1	-0.5	-23	-4	1
Cc1cc(C)n2nc(S(=O)(=O)N(C)Cc3ccccc3)nc2n1
    -1.2%	-2.6	-0.6	-2	-2	-7
O=C(N/N=C/c1cc([N+](=O)[O-])ccc1O)/C(=C\c1cccs1)NC(=O)c1ccccc1
    -0.6%	-8.5	-0.2	-90*	-6	11
Cc1sc2ncnc(N(C)CCc3ccccn3)c2c1C
    2.8%	1.4	1.2	3	1	-13
COc1cccc(CNC(=O)CCCn2ccc3cc(S(=O)(=O)N4CCCC4)ccc32)c1
    1.9%	-1.4	1.7	-2	-8	-4
COc1ccc(C(=O)N(C)CCOc2ccc(Cl)cc2)cc1S(=O)(=O)N1CCCC1
    1.6%	0.7	0.0	3	-17	25
O=C(CCN(NC(=O)c1ccccc1)C1=NS(=O)(=O)c2ccccc21)NC1CCCCC1
    0.8%	-5.0	-0.1	-1	-11	-14
O=C(NN=C1CCC(c2ccccc2)CC1)c1ccccc1-n1cccc1 (configuration not stated)
    2.1%	-0.6	-0.3	-14	-4	7
Cc1ccc(NC(=O)CCC(=O)NNC(=O)C(C)(C)C)c(C)c1
    2.0%	-3.0	-0.2	3	-16	4

# Some entries already given with just PINK1 modulator, TRPML1 inh and D2 agonist:
Structure | PINK1 modulator | TRPML1 inh | D2 agonist
O=C(CCN(NC(=O)c1ccccc1)C1=NS(=O)(=O)c2ccccc21)NC1CCCCC1 | 0.8% | -14 | -5.0
CC(=O)Nc1ccc(S(=O)(=O)NCCC(=O)NCCCc2ccccc2)cc1 | 0.5% | 1 | 5.4
